High-throughput results: PubChem BioAssay, National Center for Advancing Translational Sciences (NCATS)
ClpP mod = qHTS Assay for Activators of ClpP; purified B. subtilis ClpP, FRET peptide cleavage, 20 min; Potency, µM (doses to about 57.5 µM), for the others: top-dose activity change, negative = active; hit rate 1.9% among 340,000; AID 651965, 2013; active = well fitted falling curve with a large enough effect; inconclusive = small, poorly fitted or top-dose-only effect; inactive = no such curve, though single readings can be large or run the other way; note: the source files actives as falling curves though it sought activators and does not explain the sign; nearly all actives have a fitted effect of over 65% in size; many hits overshoot -100%
Target sequence (P80244 whole entry, looked up): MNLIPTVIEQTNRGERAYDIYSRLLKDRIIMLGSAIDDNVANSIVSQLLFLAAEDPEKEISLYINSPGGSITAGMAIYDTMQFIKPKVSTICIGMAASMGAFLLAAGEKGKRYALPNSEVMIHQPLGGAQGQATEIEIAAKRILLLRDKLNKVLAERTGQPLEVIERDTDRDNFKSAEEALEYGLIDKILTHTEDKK
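Buffer: 100 mM Tris/HCl pH8, 100 mM KCl, 0.05% low protease BSA, 2.5% glycerol, 0.01% Tween-20. ClpP 10 microg/mL final; 20 min RT; delta FRET normalized to ADEP and DMSO controls.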
* marks the source's active call; other numbers are inactive results; ? = inconclusive. Potency is the fitted concentration of half-maximal effect.

Cc1cccc(C)c1NC(=O)C(C1CC1)n1c(=O)c(-c2ccco2)nc2ccccc21 (stereo unspecified)
  ClpP mod = 4.7%
O=C(Nc1ccc2ccccc2c1)C(c1ccccc1)n1c(=O)c(-c2cc3ccccc3[nH]2)nc2ccccc21 (stereo unspecified)
  ClpP mod = 49.9%
O=C(C[C@H]1C=C[C@@H](NS(=O)(=O)c2ccccc2)[C@@H](CO)O1)NCc1ccc(Cl)c(Cl)c1
  ClpP mod = 0.0%
CC(C)(C)NC(=O)C(c1cc2ccccc2o1)n1c(=O)c(-c2ccco2)nc2ccccc21 (stereo unspecified)
  ClpP mod = 4.3%
CCCCNC(=O)C[C@@H]1C[C@@]2(C(=O)OC)CC(C)(C)CC=C2N(Cc2ccc3c(c2)OCO3)C1=O
  ClpP mod = 2.1%
C#CCNC(=O)c1cc(-c2ccccc2)sc1N
  ClpP mod = -16.2%
CC1(C(=O)NCc2ccccc2)CN(S(C)(=O)=O)CC(=O)N1CCCn1ccnc1 (stereo unspecified)
  ClpP mod = 2.3%
COc1ccc(C(C(=O)NCc2ccccc2)n2c(-c3ccncc3)nc3ccccc32)cc1 (stereo unspecified)
  ClpP mod = -11.4%
O=C(NC1CCCC1)C1C(c2ccc(C(F)(F)F)cc2)=Nc2ccccc2N1C(=O)c1ccco1 (stereo unspecified)
  ClpP mod = -28.9%
O=C(NC1CCCC1)C1C(c2ccccc2)=Nc2ccccc2N1C(=O)c1ccc(C(F)(F)F)cc1 (stereo unspecified)
  ClpP mod = -1.6%
CCC(C(=O)Nc1c(C)cccc1C)n1c(-c2ccc(=O)[nH]c2)nc2ccccc21 (stereo unspecified)
  ClpP mod = -12.2%
O=C(NC1CCCC1)C1C(c2ccc(C(F)(F)F)cc2)=Nc2ccccc2N1C(=O)c1cc2ccccc2[nH]1 (stereo unspecified)
  ClpP mod = ?
O=C(Nc1ccc(Cl)cc1)N[C@@H]1CC[C@H](CCNS(=O)(=O)c2ccccc2F)O[C@@H]1CO
  ClpP mod = -0.6%
CO[C@H]1CN(C)C(=O)c2ccc(NC(=O)C3CCC3)cc2OC[C@H](C)N(CC2CCCCC2)C[C@@H]1C
  ClpP mod = 0.7%
COC1=CC(=O)OC(c2cccc(Cl)c2)C1 (stereo unspecified)
  ClpP mod = 2.2%

CCCCNC(=O)C1C(c2ccc(C(F)(F)F)cc2)=Nc2ccccc2N1C(=O)C1CCN(C(C)=O)CC1 (stereo unspecified)
  ClpP mod = -3.6%
CC(C)NC(=O)C1C(c2ccccc2)=Nc2ccccc2N1C(=O)c1ccc(C(F)(F)F)cc1 (stereo unspecified)
  ClpP mod = -7.6%
CCOC(=O)[C@]12CCCC=C1N(Cc1ccccc1)C(=O)[C@H](CC(=O)NCc1cccc3ccccc13)C2
  ClpP mod = 0.3%
C#CCNC(=O)C[C@@H]1C[C@@]2(C(=O)OC)CC(C)(C)CC=C2N(Cc2cccc3ccccc23)C1=O
  ClpP mod = 0.6%
CCCCCCCCN1C(=O)[C@H](CC(=O)N2CCN(C(=O)OCC)CC2)C[C@@]2(C(=O)OC)CC(C)(C)CC=C12
  ClpP mod = 0.3%
CC(C)NC(=O)C1(C)CN(S(C)(=O)=O)CC(=O)N1Cc1cccc(C(F)(F)F)c1 (stereo unspecified)
  ClpP mod = -4.6%
COC(=O)C[C@H]1C=C[C@@H](NC(=O)NC2CCCCC2)[C@@H](CO)O1
  ClpP mod = -0.1%
COC(=O)[C@]12CCCCC=C1N(Cc1ccc3c(c1)OCO3)C(=O)[C@H](CC(=O)NCCCCc1ccccc1)C2
  ClpP mod = -4.2%
O=C(N[C@H]1C=C[C@H](CC(=O)N2CCCCC2)O[C@@H]1CO)c1cccc(F)c1
  ClpP mod = -0.3%
Cc1cc2c(cc1C)-n1nnnc1C(N1CCCNCC1)C(=O)N2 (stereo unspecified)
  ClpP mod = -6.7%
C#CCNC(=O)C[C@@H]1C[C@@]2(C(=O)OC)CC(C)(C)CC=C2N(CCCCCCCC)C1=O
  ClpP mod = 1.4%
COC(=O)C[C@@H]1OC[C@H](C)N1S(=O)(=O)c1ccc(C)cc1
  ClpP mod = -2.2%
CC(C)c1cc(C(=O)NCCc2cccs2)c(N)s1
  ClpP mod = -3.4%
COc1ccc(C(C(=O)NC(C)(C)C)n2c(COc3ccc(C)cc3)nc3ccccc32)cc1 (stereo unspecified)
  ClpP mod = -10.0%
O=C1N(Cc2ccccc2)c2ccc(Br)cc2[C@]12C[C@H](O)CO2
  ClpP mod = 0.5%

COC(=O)[C@@]12C[C@@H](CC(=O)NCc3ccc(C)o3)C(=O)N(CCc3ccc(OC)c(OC)c3)C1=CCC(C)(C)C2
  ClpP mod = -2.8%
COC1=CC(=O)OC(c2ccc(C#N)cc2)C1 (stereo unspecified)
  ClpP mod = -1.7%
CC(C)C(C(=O)NCc1ccccc1)N(C)Cc1ccc(Cl)c(Cl)c1 (stereo unspecified)
  ClpP mod = -1.3%
CC(C)CCN1C(=O)CSCC1(C)C(=O)Nc1ccc2c(c1)OCCO2 (stereo unspecified)
  ClpP mod = -2.6%
COc1ccc(NC(=O)C(c2ccc(C#N)cc2)n2c(=O)c(-c3cc4ccccc4[nH]3)nc3ccccc32)cc1 (stereo unspecified)
  ClpP mod = 0.3%
O=C(NC1CCCCC1)C(c1ccccc1F)n1c(=O)c(-c2ccco2)nc2ccccc21 (stereo unspecified)
  ClpP mod = 4.5%
Cc1cc(N2CCN(C(C(=O)NC3CCCC3)c3ccc(-c4ccccc4)cc3)CC2)c2ccccc2n1 (stereo unspecified)
  ClpP mod = 4.7%
COC(=O)[C@@]12C[C@@H](CC(=O)NCc3cccc(C(F)(F)F)c3)C(=O)N(Cc3ccco3)C1=CCC(C)(C)C2
  ClpP mod = 1.6%
Cc1csc(-c2nc3ccccc3n2C(C)c2nc3ccccc3[nH]2)c1 (stereo unspecified)
  ClpP mod = 3.8%
CCOC1=C2CN(S(=O)(=O)c3ccc(C)cc3)C(c3cccc(Cl)c3)CC2N(S(=O)(=O)c2ccc(C)cc2)C(c2ccncc2)C1 (stereo unspecified)
  ClpP mod = -2.5%
CC(=O)C[C@@H]1OC[C@H](C)N1S(=O)(=O)c1ccc(C)cc1
  ClpP mod = 1.3%
CCCCCCCCN1C(=O)[C@H](CC(=O)NCc2cccc(C(F)(F)F)c2)C[C@@]2(C(=O)OCC)CCC=C12
  ClpP mod = 0.5%
CCOC(=O)/C=C/c1cccc(C)c1O
  ClpP mod = -3.8%
C[N+](=O)C1C(=O)Nc2ccccc21 (stereo unspecified)
  ClpP mod = 0.2%
COc1ccc(C(C(=O)NC2CCCC2)n2c(C3CCN(C(C)=O)CC3)nc3ccccc32)cc1 (stereo unspecified)
  ClpP mod = -16.9%

Cc1cccc(C)c1NC(=O)C1(C)CSCC(=O)N1Cc1cccc(C(F)(F)F)c1 (stereo unspecified)
  ClpP mod = -1.5%
COCC(=O)N1C[C@@H](C)[C@@H](OC)CN(C)C(=O)c2ccc(NC(=O)c3cnccn3)cc2OC[C@H]1C
  ClpP mod = -2.4%
Cc1cccc(C)c1NC(=O)C(c1ccccc1F)n1c(=O)c(-c2cc3ccccc3[nH]2)nc2ccccc21 (stereo unspecified)
  ClpP mod = 27.5%
CCOC(=O)[C@]12CCCC=C1N(CCC1=CCCCC1)C(=O)[C@H](CC(=O)NCc1cccs1)C2
  ClpP mod = 2.3%
CC(C)N1C(=O)c2ccccc2NC(=O)C1C(=O)NCc1cccc(C(F)(F)F)c1 (stereo unspecified)
  ClpP mod = -1.4%
COC(=O)C[C@H]1C=C[C@H](NC(=O)Nc2ccccc2OC)[C@@H](CO)O1
  ClpP mod = -0.6%
N#Cc1ccc(C(C(=O)Nc2ccc3c(c2)OCCO3)n2c(=O)c(-c3ccco3)nc3ccccc32)cc1 (stereo unspecified)
  ClpP mod = -10.6%
CC1(C(=O)NCc2ccccc2)CSCC(=O)N1CCc1c[nH]c2ccccc12 (stereo unspecified)
  ClpP mod = -1.5%
Cc1nc2ccc(C(=O)N3c4ccccc4N=C(c4ccc(C(F)(F)F)cc4)C3C(=O)NC(C)(C)C)cc2[nH]1 (stereo unspecified)
  ClpP mod = 8.3%
COC(=O)C[C@H]1CC[C@@H](NS(=O)(=O)c2ccc(C)cc2)[C@@H](CO)O1
  ClpP mod = 1.4%
Cc1ccc(C(=O)Nc2c(-c3ccccc3)[nH][nH]c2=O)cc1
  ClpP mod = -0.6%
N#Cc1cccc(C(=O)C(=O)N2CCC(Cc3ccccc3)CC2)c1
  ClpP mod = 0.6%
COC(=O)C1(C(=O)OC)C[C@H](c2ccc(OC)cc2)N(Cc2ccccc2OC)[C@@H]1c1ccccc1
  ClpP mod = -5.0%
CC(C)(C)NC(=O)C(c1ccncc1)n1c(=O)c(-c2ccccc2)nc2ccccc21 (stereo unspecified)
  ClpP mod = 4.5%
CCCNC(=O)N1C[C@H](O)COC[C@@H]2O[C@@H](CC(=O)NCCCN3CCOCC3)CC[C@H]21
  ClpP mod = 1.1%

CCC(C)[C@H]1CNC(=O)C(=O)N1CCc1cccc2ccccc12 (stereo partly specified)
  ClpP mod = -0.7%
COC(=O)C[C@H]1C=C[C@@H](NC(=O)C2CC2)[C@@H](CO)O1
  ClpP mod = 0.1%
Cc1ccc(S(=O)(=O)NCc2ccccc2Br)cc1
  ClpP mod = 0.5%
CC(C)CNC(=O)C1C(=O)Nc2ccccc2C(=O)N1C1CCCCC1 (stereo unspecified)
  ClpP mod = -4.9%
COC(=O)[C@]12CCCCC=C1N(CCc1ccc(OC)c(OC)c1)C(=O)[C@H](CC(=O)NCC1CCCCC1)C2
  ClpP mod = -4.9%
O=C(Nc1ccc(F)cc1)C(c1cccc(F)c1)N1CCN(Cc2c(F)cccc2Cl)CC1 (stereo unspecified)
  ClpP mod = 2.0%
COC(=O)C[C@@H]1C=C[C@@H](NC(=O)Nc2cccc(F)c2)[C@@H](CO)O1
  ClpP mod = 0.6%
CC(C(=O)NC1CCCC1)n1c(C2CC2)nc2ccccc21 (stereo unspecified)
  ClpP mod = -2.6%
O=C(C[C@H]1CC[C@@H](NC(=O)Nc2ccc3c(c2)OCO3)[C@@H](CO)O1)NCc1ccccc1
  ClpP mod = 1.7%
O=C1Nc2ccccc2-n2nnnc2C1N1CCc2ccccc2C1 (stereo unspecified)
  ClpP mod = -3.1%
Cc1ccc(C(=O)N2c3ccccc3N=C(c3ccccc3)C2C(=O)NC(C)C)cc1 (stereo unspecified)
  ClpP mod = -17.0%
COc1cc(CC(=O)Nc2c(-c3ccccc3)[nH][nH]c2=O)cc(OC)c1
  ClpP mod = 0.4%
CCCCNC(=O)C(NC(=O)c1ccc2ccccc2c1)C(=O)c1ccccc1 (stereo unspecified)
  ClpP mod = 1.1%
CN(C)C(=O)C[C@@H]1CC[C@@H](NC(=O)C2CCC2)[C@@H](CO)O1
  ClpP mod = -0.6%
Cc1ccc([N+](=O)[O-])cc1CN1CCN(c2ncc(Cc3ccccc3)cn2)CC1
  ClpP mod = -0.9%

Given with tabs: 3 of the compounds above
Molecule	ClpP mod
CC(C)CNC(=O)C1C(=O)Nc2ccccc2C(=O)N1C1CCCCC1 (stereo unspecified)	-4.9%
COC(=O)[C@]12CCCCC=C1N(CCc1ccc(OC)c(OC)c1)C(=O)[C@H](CC(=O)NCC1CCCCC1)C2	-4.9%
O=C(Nc1ccc(F)cc1)C(c1cccc(F)c1)N1CCN(Cc2c(F)cccc2Cl)CC1 (stereo unspecified)	2.0%

The list goes on:
CO[C@@H]1CN(C)C(=O)c2ccc(NC(=O)c3ccccc3F)cc2OC[C@@H](C)N(CC2CCOCC2)C[C@@H]1C
  ClpP mod = 1.5%
CC(C)NC(=O)C1(C)CN(S(C)(=O)=O)CC(=O)N1CCc1ccccc1 (stereo unspecified)
  ClpP mod = -0.2%
COC(=O)C1=CN(c2ccc(OC)cc2OC)C(N)=C(C#N)C1c1cccc([N+](=O)[O-])c1 (stereo unspecified)
  ClpP mod = 1.0%
O=C(C(=O)N1CCN(c2ccncc2)CC1)c1cccc(Br)c1
  ClpP mod = 0.3%
Nc1nc2ccc(Cl)cc2cc1C(=O)NCCc1ccc(Cl)cc1Cl
  ClpP mod = -14.2%
CC(C)(C)NC(=O)C(c1ccnc2ccccc12)n1c(=O)c(-c2ccccc2)nc2ccccc21 (stereo unspecified)
  ClpP mod = -8.8%
O=C(NCc1ccccc1)C(c1ccc(-c2ccccc2)cc1)n1c(=O)c(-c2ccco2)nc2ccccc21 (stereo unspecified)
  ClpP mod = ?
CC(C)OC1=CC(=O)OC(c2cccc(Cl)c2)C1 (stereo unspecified)
  ClpP mod = 0.6%
COC(=O)c1sc(NC(=O)OCc2ccccc2)nc1CCNC(=O)OC(C)(C)C
  ClpP mod = -1.5%
CC(C)NC(=O)C1C(c2ccc(C(F)(F)F)cc2)=Nc2ccccc2N1C(=O)c1cc2ccccc2[nH]1 (stereo unspecified)
  ClpP mod = -2.0%
Cc1cccc(C)c1NC(=O)C1(C)CSCC(=O)N1CCCn1ccnc1 (stereo unspecified)
  ClpP mod = -2.7%
COC(=O)C1=CN(c2c(C)cc(C)cc2C)C(N)=C(C#N)C1c1ccccc1 (stereo unspecified)
  ClpP mod = -2.6%
CN1CCN(C(=O)C[C@H]2CC[C@H]3[C@@H](COC[C@@H](O)CN3Cc3cccc(F)c3)O2)CC1
  ClpP mod = 1.5%
COC(=O)[C@@]12C[C@@H](CC(=O)NCc3ccccc3)C(=O)N(Cc3cccc4ccccc34)C1=CCC(C)(C)C2
  ClpP mod = -1.8%
O=C(Nc1ccc(F)cc1)C(c1ccccc1OC(F)(F)F)N1CCN(c2cccc(C(F)(F)F)n2)CC1 (stereo unspecified)
  ClpP mod = -24.8%
COc1ccc(C2=Nc3ccccc3N(C(=O)c3ccc(C)cc3)C2C(=O)Nc2c(C)cccc2C)cc1 (stereo unspecified)
  ClpP mod = 4.7%
Cc1cc2c(cc1C)-c1nnnn1C(N1CCCCC1)C(=O)N2 (stereo unspecified)
  ClpP mod = -0.5%

Only part of the results is shown; count on the stated rates, not on these rows.
